KCNQ2 pot: potentiators of rat KCNQ2 potassium channel | CHO-K1 KCNQ2, FluxOR thallium flux fluorescence; stronger effect = higher value | AID 2239, 2010 | Potassium voltage-gated channel subfamily KQT member 2 (Rattus norvegicus), O88943 | actives 0.54% (n = 310,000) | B-score at 10 µM;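 active means fluorescence ratio B-score at least 3 SD of library B-scores, with initial fluorescence B-score within 3 SD, cut at about 5.3 in these data; same plate scores as AID 2156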;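 further: B-score of peak minus minimum over baseline fluorescence ratio after K+ and Tl+ stimulus; positive B-score means potentiation of KCNQ2 with more thallium influx and brighter signal; only the inactives scoring about 0 or higher are listed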
Target sequence (O88943 whole entry, looked up): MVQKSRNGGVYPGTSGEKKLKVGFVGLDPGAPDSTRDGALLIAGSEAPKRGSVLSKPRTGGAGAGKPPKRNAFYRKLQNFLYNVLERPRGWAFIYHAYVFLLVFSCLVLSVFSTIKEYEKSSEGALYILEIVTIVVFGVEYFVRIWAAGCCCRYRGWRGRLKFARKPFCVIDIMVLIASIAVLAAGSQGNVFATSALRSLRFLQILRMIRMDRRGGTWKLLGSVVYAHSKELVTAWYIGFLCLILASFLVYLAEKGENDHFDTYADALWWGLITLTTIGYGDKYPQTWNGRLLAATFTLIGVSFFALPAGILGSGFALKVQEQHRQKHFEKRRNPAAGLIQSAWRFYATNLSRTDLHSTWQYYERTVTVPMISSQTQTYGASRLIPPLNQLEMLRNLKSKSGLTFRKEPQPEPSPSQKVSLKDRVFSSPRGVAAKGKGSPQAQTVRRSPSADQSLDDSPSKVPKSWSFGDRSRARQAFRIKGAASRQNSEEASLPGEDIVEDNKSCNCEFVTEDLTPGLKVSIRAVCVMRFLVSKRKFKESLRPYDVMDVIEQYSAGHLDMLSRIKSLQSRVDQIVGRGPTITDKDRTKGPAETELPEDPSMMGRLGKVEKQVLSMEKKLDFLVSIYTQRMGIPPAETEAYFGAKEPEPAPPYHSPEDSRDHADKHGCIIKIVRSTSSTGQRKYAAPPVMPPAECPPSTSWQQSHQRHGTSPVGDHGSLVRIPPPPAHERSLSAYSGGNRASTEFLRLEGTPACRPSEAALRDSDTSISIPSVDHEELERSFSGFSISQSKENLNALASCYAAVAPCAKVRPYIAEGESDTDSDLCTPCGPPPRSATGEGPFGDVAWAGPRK
KCNQ2 pot baseline: recorded beside KCNQ2 pot, whose call it bears; B-score; compound at 10 µM; measured here: initial fluorescence intensity artifact check;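 brightness before thallium and not channel activity; 0 = typical well and far values either way flag optical interference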
Active calls of the source: *; · = not tested or not shown. This is a subset (hit frequency here may not be typical).

SMILES	KCNQ2 pot	KCNQ2 pot baseline
CCn1c(C(=O)O)c(CC(=O)NC2CCCCCC2)c2ccccc21	0.35	0.03
CC(C)(C)C(=O)Nc1ccccc1C(=O)Nc1ccncc1	0.05	-0.78
Cc1ccc(NC(=O)Nc2nnc(Cc3ccc(F)cc3)s2)cc1	0.33	-1.1
O=C(Nc1cc(Cl)cc(Cl)c1)C1CC(=O)N(C2CCCC2)C1 (centres undefined)	2	1
Cn1c(=O)[nH]c(NC2CCCCC2)c(N=O)c1=O	0.25	0.03
CCOC(=O)c1[nH]c2ccc(Cl)cc2c1-c1ccccc1	1.2	-0.22
CCN(CC)CCCN1C(=O)c2oc3ccccc3c(=O)c2C1c1cccs1 (centres undefined)	3.9	2
COc1ccc(S(=O)(=O)N(C)c2ccc(OCC(=O)Nc3cc(C)on3)cc2)cc1	0.02	-1.2
COCCCNC(=S)NCCCNc1nc2cc(C)cc(C)c2cc1C#N	0.14	-0.07
O=S(=O)(c1cccc(C(F)(F)F)c1)N(CCCN1CCOCC1)Cc1cccs1	2.4	·
COc1ccc(C(=O)NC(C(=O)N2CCN(c3ccccc3O)CC2)C(C)C)cc1 (centres undefined)	0.02	0.25
O=C(COc1ccc(Cl)cc1Cl)Nc1ccccc1NS(=O)(=O)c1cccs1	1.8	-1.7
Cn1c(=O)c2c(nc(N3CCN(c4ccccc4)CC3)n2CCCc2ccccc2)n(C)c1=O	1.3	0.09
CC(=O)N1CCN(c2ccc(NC(=O)c3ccc([N+](=O)[O-])o3)cc2Cl)CC1	0.12	2.4
Cc1nc2ccccc2n1CC(=O)N/N=C/c1cccnc1	0.07	-0.17
Cc1ccc(NC(=O)/C=C/c2ccc([N+](=O)[O-])s2)c(C)c1	0.45	-0.78
O=C(Cn1c(=O)oc2cc(S(=O)(=O)N3CCCC3)ccc21)Nc1cccc(C(F)(F)F)c1	1.4	0.34
Nc1nonc1C(=O)OCC(=O)N1CCOCC1	1.1	0.87
COc1ccc(CNC(=O)Nc2ccc3c(c2)N(C)C(=O)CS3)cc1	0.89	-2.3
O=C(O)c1nn(-c2cccc(Cl)c2)c(=O)cc1O	0.69	-1.1

Reprinted from the listing (3 entries):
SMILES	KCNQ2 pot	KCNQ2 pot baseline
Nc1nonc1C(=O)OCC(=O)N1CCOCC1	1.1	0.87
COc1ccc(CNC(=O)Nc2ccc3c(c2)N(C)C(=O)CS3)cc1	0.89	-2.3
O=C(O)c1nn(-c2cccc(Cl)c2)c(=O)cc1O	0.69	-1.1

Going on with the list:
SMILES	KCNQ2 pot	KCNQ2 pot baseline
Cn1cc(CC(=O)NC2CCCCC2)c2ccccc21	5.4*	-0.25*
O=C(CNC(=O)c1ccc(Br)cc1)N=Nc1c(O)[nH]c2ccc([N+](=O)[O-])cc12	0.45	-0.8
O=C(CC1NCCNC1=O)Nc1ccc2c(c1)OCO2 (centres undefined)	0.26	0.63
COc1cc(C(=O)Nc2scc(-c3ccc(Br)cc3)c2C(=O)O)cc(OC)c1OC	1.4	-2.3
FC(F)(F)c1ccccc1NC(=S)N1CCN(Cc2ccc3c(c2)OCO3)CC1	0.75	-1
Cc1ccc(S(=O)(=O)NC2CCCCC2)c2nsnc12	2.3	0.44
CC1CCN(S(=O)C23CC4CC(CC(C4)C2)C3)CC1 (centres undefined)	2.9	1.7
CCOc1ccccc1NC(=O)c1cc(=O)c2ccccc2o1	0.22	1.7
Cc1ccc(S(=O)(=O)NC(=O)COc2ccccc2)cc1	0.44	-1.4
CC1CCN(C(=O)c2ccc(S(=O)(=O)N(C)C)cc2)C(C)C1 (centres undefined)	1.1	-0.55

6 records drawn at random from those above, as already listed:
SMILES	KCNQ2 pot	KCNQ2 pot baseline
O=C(CNC(=O)c1ccc(Br)cc1)N=Nc1c(O)[nH]c2ccc([N+](=O)[O-])cc12	0.45	-0.8
CCOc1ccccc1NC(=O)c1cc(=O)c2ccccc2o1	0.22	1.7
Cc1ccc(S(=O)(=O)NC(=O)COc2ccccc2)cc1	0.44	-1.4
CC1CCN(C(=O)c2ccc(S(=O)(=O)N(C)C)cc2)C(C)C1 (centres undefined)	1.1	-0.55
O=C(CC1NCCNC1=O)Nc1ccc2c(c1)OCO2 (centres undefined)	0.26	0.63
Cn1cc(CC(=O)NC2CCCCC2)c2ccccc21	5.4*	-0.25*

Following part.
SMILES	KCNQ2 pot	KCNQ2 pot baseline
Cc1cc(C[n+]2ccccc2)c2nsnc2c1	1.3	0.16
C[C@H]1CCC2[C@](C)(CO)[C@@H](O)CC[C@]2(C)[C@@]12CCC(CO)(CCO)O2 (some centres undefined)	1.3	0.45
Cc1sc[n+](CC(=O)c2ccc(Br)cc2)c1C	1.9	-1.2
CN(C)S(=O)(=O)c1ccc(-n2cccc2)cc1	0.84	1.7
COc1cc(NC(=O)Cn2c(=O)n(CC3CCCO3)c(=O)c3ccccc32)cc(OC)c1 (centres undefined)	0.22	0.76
CCN1C(=O)[C@@H]2[C@H](C1=O)[C@@H]1C(=O)Nc3ccccc3C(=O)N1[C@@H]2c1cccc(Cl)c1	0.59	0.67
Cc1sc2nc(C(C)C)nc(SCC(=O)N3CCN(C(=O)c4ccco4)CC3)c2c1C	13*	0.25*
Cc1[nH]c(=O)[nH]c(=O)c1S(=O)(=O)N1CCCc2ccccc21	0.68	0.01
Cc1ccc(-n2c(=O)[nH]c3c(C(N)=O)nc(C(C)C)nc32)cc1	0.36	0.15
O=C(OCC(O)COc1ccccc1)c1ccc([N+](=O)[O-])cc1 (centres undefined)	0.02	-0.47
CC(=O)N(C)c1ccc(OCC(O)CN(Cc2ccco2)S(=O)(=O)c2ccc(C)cc2)cc1 (centres undefined)	0.59	-3.1
CCOC(=O)c1ccc(Oc2nc(N(C)C)nc(N3CCOCC3)n2)cc1	0.06	-0.22
Cc1ccc(C(=O)NCC(=O)NCC(=O)OCc2ccc(Oc3ccc([N+](=O)[O-])cc3)cc2)cc1	2.6	-0.15
Cc1ccccc1C(=O)N1CCC(C(=O)NC2CCCCCC2)CC1	1.1	0.33
COc1ccc(C(=O)O/N=C(\N)c2ccncc2)cc1OC	1.5	-0.52
Cc1cccc(Cn2c(N3CCN(C)CC3)nc3c2c(=O)[nH]c(=O)n3C)c1	0.52	1
Nc1nnc(N)c2ccccc12	0.52	0.86
Cc1ccc(C(=O)Cn2cncn2)cc1	0.33	-1.4
O=C(NCCCN1CCOCC1)c1cccc(S(=O)(=O)Nc2cc(Cl)ccc2Cl)c1	1.8	-1.1
COc1cc2c(cc1OC)CN(S(C)(=O)=O)CC2	2.1	-1.9
CCN1CCN(C(=O)c2ccccc2N(C)S(=O)(=O)c2ccc(C)cc2)CC1	0.37	-0.01
Cc1ccccc1CNC(=O)Nc1ccc(Cl)cc1	0.77	-1.5
CCn1c(=O)cc(SCC(=O)N2CCOCC2)c2ccccc21	0.02	-3.7
COc1cccc(CNC(=O)CCC2CCCN(C(=O)CCC(F)(F)F)C2)c1 (centres undefined)	0.02	-0.97
COc1ccc(CCN(C)c2ccc(S(=O)(=O)N3CCCC3)cc2[N+](=O)[O-])cc1OC	0.89	0.74
O=S(=O)(c1cc(Cl)ccc1Cl)N1CCN(c2ccccn2)CC1	0.01	2.9
C=CCN1C(=O)C(CC(=O)O)SC1=Nc1cccc([N+](=O)[O-])c1 (centres undefined)	1.4	-0.81
COc1ccc2c(c1)Cc1sc(NC(=O)c3ccccc3)nc1-2	0.38	-0.59
COC(=O)CCCC(=O)N(C)CC1CCCN(CCc2ccccc2C)C1 (centres undefined)	1.1	1.3
CN(C)c1ccc(NC(=O)c2ccc([N+](=O)[O-])cc2Cl)cc1	0.61	-0.66
CC(C)c1ccc(NC2CCCN(C(=O)c3cccc4nccnc34)C2)cc1 (centres undefined)	1.1	-0.09
CCSc1nnc(NC(=O)NC2CCCCC2)s1	0.22	0.63
CN1CCN(C(=O)c2cnn(-c3ccccc3)c2NC(=O)c2ccccc2)CC1	1.4	-1.9
CCn1c(=O)cc(OCC(=O)NCCCN2CCCC2=O)c2ccccc21	0.28	0.01
Cc1ccnc(Nc2nc3ccccc3o2)n1	0.11	-1
Cn1c(SCC(=O)Nc2ccc(F)cc2)nc2c(c1=O)SCC2	2.3	-0.64
CC1CCCN(CC(O)COc2ccc3c(c2)OCO3)C1 (centres undefined)	1.4	-0.13
Cn1c(=O)c2c(nc3n2CC(COc2ccc(Cl)cc2)O3)n(C)c1=O (centres undefined)	0.69	-1.2
OCC1(Cc2ccccc2C(F)(F)F)CCN(Cc2ccc3c(c2)CCO3)CC1	0.05	0
CCCOc1ccc(/C=N/NC(=O)CN(c2ccc(OCC)cc2)S(C)(=O)=O)cc1	0.51	-0.67
CCSc1nnc(NC(=O)CCc2ccc(OC)cc2)s1	0.5	0.24
O=C(NC(=S)Nc1ccccc1N1CCCC1)c1ccccc1Br	4.9	0.72
CCN(CC)CCCNC(=O)c1cc(-c2cccc(Cl)c2)on1	0.9	0
CCn1c(SCC(=O)Nc2sc3c(c2C(N)=O)CCC(C)C3)nnc1-c1ccco1 (centres undefined)	0.69	0.03
Nc1c(N)c2ccccc2oc1=O	0.08	-0.57
COc1nonc1NC(=O)CSc1nc2ccccc2[nH]1	0.02	0.93
O=C1CCC(C(=O)Nc2cc(C(F)(F)F)ccc2-n2cncn2)=NN1	0.34	0.32
O=c1[nH]c(=S)[nH]c2c1C(c1ccc(Br)cc1)c1c([nH]c(=S)[nH]c1=O)O2	0.35	0.13
Nn1c(SCc2cc([N+](=O)[O-])cc3c2OCOC3)nnc1-c1cccnc1	0.98	0.44
CC(=O)c1cccc(NC(=O)CSCc2ccc(Br)cc2)c1	0.43	0.5

Reprinted from the part before: 4 compounds; new compounds follow.
SMILES	KCNQ2 pot	KCNQ2 pot baseline
O=C1CCC(C(=O)Nc2cc(C(F)(F)F)ccc2-n2cncn2)=NN1	0.34	0.32
O=c1[nH]c(=S)[nH]c2c1C(c1ccc(Br)cc1)c1c([nH]c(=S)[nH]c1=O)O2	0.35	0.13
Nn1c(SCc2cc([N+](=O)[O-])cc3c2OCOC3)nnc1-c1cccnc1	0.98	0.44
CC(=O)c1cccc(NC(=O)CSCc2ccc(Br)cc2)c1	0.43	0.5
CC(OC(=O)C1CSC2(c3ccc(F)cc3)CCC(=O)N12)C(=O)NC(N)=O (centres undefined)	0.07	0.76
Cc1ccc(-c2csc(NC(=O)CCCc3cccs3)n2)cc1	0.86	-0.51
CN(C)S(=O)(=O)N1CCC(Oc2ccc(C(=O)NC3CCCCC3)cc2)CC1	0.97	1.9
CCOC(=O)c1cc(CC)sc1NC(=O)COC(=O)c1ccccn1	0.22	-0.23
Cc1ncc(CO)c2c1Oc1nc(-c3ccccc3)nc(SCC(=O)Nc3cccc(O)c3)c1C2	0.05	1.8
CN(Cc1ccon1)C(=O)CC1C(=O)NCCN1Cc1ccc(F)c(F)c1 (centres undefined)	0.76	0.69
CC1(C)CC(=O)C2=C(C1)Nc1ccccc1NC2c1ccc2c(c1)OCO2 (centres undefined)	0.61	-0.45
CN(CC(=O)N1CCCC1)S(=O)(=O)c1ccc2ccccc2c1	1.3	0.47
COc1ccc(-c2nn(CCC#N)cc2C(=O)Nc2cccc(C(=O)O)c2)cc1OC	0.46	-1.4
Cc1cccc(C)c1N1CCN(C(=O)Nc2ccc3c(c2)OCCO3)CC1	1.3	-0.39
CCOC(=O)c1sc(NC(=O)CSc2nnc(C(C)C)n2C)nc1C	0.45	1.2
CCc1cc(CNC(=O)c2ccc(OC)c(OC3CCN(C(C)C)CC3)c2)on1	0.16	1.2
Cc1ccc(S(=O)(=O)NCCCCCC(=O)Nc2nccs2)cc1	0.9	-0.39
O=C(O)c1ccc(Cn2cc(/C=C\[N+](=O)[O-])c3ccccc32)o1	0.04	-0.59
COc1cccc(-c2nc3n(n2)C(c2ccc4c(c2)OCO4)C(C(N)=O)=C(C)N3)c1 (centres undefined)	1.3	0.18
COCCOC(=O)c1[nH]c2c(c1C)C(=O)CC(c1ccc(OC)cc1)C2 (centres undefined)	0.7	-0.06
CSCCC(NC(=O)OC(C)(C)C)C(=O)NC(CC(C)C)C(N)=O (centres undefined)	0.94	-0.37
CCCC12CN3CC(C)(CN(C1)C3c1ccc(OC)cc1)C2=O (centres undefined)	1.2	-0.71
Cn1c(N)c(C(=O)Nc2ccc3ccccc3c2)sc1=S	0.58	-0.09
CC1(C)Cc2cccc(OCC(=O)Nc3cccnc3)c2O1	1.1	0.09
COc1ccc(CN(C)C(=O)Cc2c[nH]c3ccccc23)c(OC)c1OC	1.9	1.3
O=C(NCc1cccnc1)C1CCN(S(=O)(=O)c2cccs2)CC1	0.33	1.4
C/C(=N/NC(=O)c1ccco1)c1cccc(NC(=O)c2ccc(C)s2)c1	2	-0.32
CC1CCCCN1c1nnc(N)s1 (centres undefined)	0.59	1.7
CC(C)c1ccccc1NC(=O)COC(=O)Cc1c[nH]c2ccccc12	0.31	-0.24
CN1C(=O)CC(N2CCC(c3nc4ccccc4[nH]3)CC2)C1=O (centres undefined)	0.58	0.03
C=CCn1c(COc2cccc(C)c2)nnc1SCC(=O)NC(=O)NCc1ccco1	1	-0.39
CNc1cc(CSc2ccc(Cl)cc2)nc(C)n1	1.2	0
O=C1NC(=O)c2cc([N+](=O)[O-])cc3cccc1c23	1.4	-0.26
CN1/C(=C/C2CC(=O)N(c3cccc4ccccc34)C2=O)C(C)(C)c2ccccc21 (centres undefined)	0.92	-1.4
CC(C)(C)NC(=O)CN(C(=O)CNS(=O)(=O)c1ccccc1)c1ccc2c(c1)OCCO2	2.6	1.6
CC1CCN(S(=O)(=O)CCNC(=O)c2ccc(F)cc2)CC1	0.71	0.44
CN(C)C(=O)CCC(=O)N1CCCC(C(=O)c2ccc(C(F)(F)F)cc2)C1 (centres undefined)	0.16	1.6
COC(=O)c1cc2sc(Cl)cc2n1Cc1nc(-c2ccccc2)oc1C	0.5	-2.2
COc1cccc(N/C=C/C(=O)c2ccc(Br)cc2)c1	1.4	-0.07
O=C(CCCn1c(=O)[nH]c2ccccc2c1=O)NCCSCc1ccccc1	1.8	-1.3

Source: PubChem BioAssay (Johns Hopkins Ion Channel Center)
